Screening results from PubChem BioAssay.
Menin MLL FP FL = menin-MLL binding inhibition, fluorescein peptide; Fluorescence polarization, fluorescein-MLL peptide displacement from menin; FP activity change, % at 61.4 µM; 290,000 tested, under 10 active; AID 1766; inconclusive = falling polarisation curve, or a change in total fluorescence; inactive = total fluorescence flat and polarisation flat or rising; no compound was filed as active; the % refers to the polarisation; negative = inhibition;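 note: % of control where 0% means no effect; inhibitors lower the polarisation; unlabelled MLL peptide was the positive control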
D2 potentiator = positive allosteric modulators of human D2 dopamine receptor | P14416 | DiscoveRx D2 beta-arrestin cells, luminescence, 90 min; 100% = 57 uM dopamine signal | potentiation, % (concentration not given with the values) | 360,000 compounds, 0.23% hits | AID 624464; active = potentiation of 50% or more; inconclusive = 30% to 50%; inactive = 30% or less;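 note: tested on top of an EC20 dose of dopamine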
Target sequence (P14416 whole entry, looked up): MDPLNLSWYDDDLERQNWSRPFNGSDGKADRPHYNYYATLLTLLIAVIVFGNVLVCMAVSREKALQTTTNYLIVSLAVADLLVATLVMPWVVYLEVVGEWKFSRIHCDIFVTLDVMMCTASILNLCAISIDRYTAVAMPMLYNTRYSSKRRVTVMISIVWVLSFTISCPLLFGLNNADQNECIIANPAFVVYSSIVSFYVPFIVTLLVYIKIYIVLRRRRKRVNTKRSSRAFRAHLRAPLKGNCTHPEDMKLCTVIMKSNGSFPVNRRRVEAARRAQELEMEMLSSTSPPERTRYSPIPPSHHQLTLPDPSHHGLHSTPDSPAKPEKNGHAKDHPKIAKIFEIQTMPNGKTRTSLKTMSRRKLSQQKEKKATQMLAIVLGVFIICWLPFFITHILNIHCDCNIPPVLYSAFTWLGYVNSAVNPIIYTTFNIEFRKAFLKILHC
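PathHunter beta-arrestin assay in DiscoveRx D2 cells. Compounds were added with an EC20 of dopamine (50 nM final) for 90 min at 37 deg C. Luminescence was read 1 h after detection reagent, with 57 uM dopamine as the EC100 control.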
TRPV1 PAM = enhances activation of the human vanilloid receptor TRPV1; Q8NER1; TRPV1-expressing cells, Fluo-8 calcium influx, capsaicin EC20 potentiation; host cell line not named in the record; control for the full effect not named in the record; potentiation, % at 8.33 µM; 320,000 compounds, 0.02% hits; AID 540277; active means potentiation above 80%; inconclusive means 30% to 80%; inactive means below 30%; note: 0% is about no effect
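Fluo-8 calcium influx in TRPV1-expressing cells, kinetic read (ex 480/em 520 nm). Compound added and read 3 min for agonist activity, followed by capsaicin at EC20 final and 2 min further read for enhancement.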
Sfp PPTase inh = Sfp phosphopantetheinyl transferase inhibition; Biochemical Sfp PPTase activity, qHTS; Potency, µM, for inactives: max response, negative = inhibition, actives largely listed as inhibitors; 310,000 compounds, 3.5% hits; AID 1490; Q9F4F7; active = well fitted inhibition curve with a large enough effect; inconclusive = small, poorly fitted or top-dose-only effect, or another doubt; inactive = no such curve, though single readings can be large or run the other way;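 note: the enzyme is Sfp with the accession as filed and its product quenches rhodamine fluorescence; potency is the fitted concentration of half-maximal effect; 0% = enzyme reaction without inhibitor and -100% = no enzyme wells; top concentration of the series not given in the record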
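Fluorescence-quenching assay with 15 nM Sfp, 5 uM rhodamine-CoA and 12.5 uM BHQ-2-labelled ybbR peptide in pH 7.6 Hepes/MgCl2 buffer. Enzyme was pre-incubated with compound for 15 min at room temperature. Rate was taken from the 30-min fluorescence change (525/598 nm).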
gsp antag = antagonizes gsp, the McCune-Albright syndrome mutation; 340,000 compounds, 0.4% hits; gsp-mutant cells, cAMP HTRF, 30 min; control for the full effect not named in the record; Potency, µM (highest dose often 76.9 µM), for the others: at the top dose activity change, negative = inhibition, usual class: inhibitors; active = falling curve of any shape with a large fitted effect; inconclusive = falling curve, mostly with a smaller effect; inactive = flat or rising curve; cell line not stated here;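 note: intracellular cAMP measured with PDE inhibitor Ro 20-1724 present during compound exposure; potency is the fitted concentration of half-maximal effect; % is set by controls: 0 for no effect and ±100 for the full control effect; nearly all actives have a fitted effect of over 65% in size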
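G418-selected cells were plated in DMEM/10% FBS for 16-24 h at 37C, then treated with compounds plus the PDE inhibitor […] (300 uM solution added) for 30 min at 37C. Intracellular cAMP was measured by HTRF after 30 min lysis at room temperature.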
gsp agonist = agonists of gsp mutant (McCune-Albright syndrome). 340,000 compounds, 0.13% hits. Potency, µM (series often up to 76.9 µM), for the others: top-dose activation (cAMP increase), actives largely listed as activators. gsp mutant cells, cAMP HTRF, 30 min; control for the full effect not named in the record; active = well fitted activation curve with a large enough effect; inconclusive = small, poorly fitted or top-dose-only effect, or another doubt; inactive = no such curve, though single readings can be large or run the other way; cell line not stated here;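 note: phosphodiesterase inhibitor Ro 20-1724 added with compounds to block cAMP breakdown; potency is the fitted concentration of half-maximal effect; nearly all actives have a fitted effect of over 60% in size; about a fifth of the inactives were tested at one dose only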
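Cells in DMEM/10% FBS with G418 were pretreated with compounds in DMSO plus […] (300 uM stock) for 30 min at 37C. cAMP was measured by HTRF (cAMP-d2 plus anti-cAMP antibody-K) after 30 min at room temperature.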
ClpP mod = qHTS Assay for Activators of ClpP. 340,000 compounds, 1.9% hits. purified B. subtilis ClpP, FRET peptide cleavage, 20 min. Potency, µM (doses to about 57.5 µM), for inactives: at the top dose activity change, negative = active; active = well fitted falling curve with a large enough effect; inconclusive = small, poorly fitted or top-dose-only effect; inactive = no such curve, though single readings can be large or run the other way; note: potency is the fitted concentration of half-maximal effect; the source files actives as falling curves though it sought activators and does not explain the sign; nearly all actives have a fitted effect of over 65% in size; many hits overshoot -100%
Target sequence (P80244 whole entry, looked up): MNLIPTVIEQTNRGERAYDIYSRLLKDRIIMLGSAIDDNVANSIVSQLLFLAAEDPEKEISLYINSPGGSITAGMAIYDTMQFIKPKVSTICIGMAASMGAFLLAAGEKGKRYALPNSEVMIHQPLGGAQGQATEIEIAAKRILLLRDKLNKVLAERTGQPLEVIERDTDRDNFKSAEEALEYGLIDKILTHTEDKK
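FRET quenching reversal measured ClpP activation: 10 microg/mL B. subtilis ClpP at pH 8 with the FRET-FV decapeptide, read at 430 nm after 320 nm excitation. The 20-min minus 0-min signal was scaled between DMSO/no-enzyme wells and ADEP (5.8 microM final).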
Numbers without * were called inactive; ? = inconclusive; . = not tested or not shown; & = joins results of further samples; [ ] = remark or other dose.

cpd	smiles	Menin MLL FP FL	D2 potentiator	TRPV1 PAM	Sfp PPTase inh	gsp antag	gsp agonist	ClpP mod
1	Nc1nc(COC(=O)c2ccc3c(c2)OCCO3)nc(Nc2ccccc2)n1	.	-3	4	.	-25%	3%	3.6%
2	COc1ccccc1C(=O)Nc1ccc2c(c1)nc(CCNC(C)=O)n2C	1.9	6	-7	14%	0%	21%	0.3%
3	O=S(=O)(c1cccc(S(=O)(=O)N2CCC(n3nnc4ccccc43)CC2)c1)N1CCCCC1	3.1	0	0	17%	6%	0%	1.2%
4	Oc1ccccc1C1=NN(c2ccccc2)C(c2ccc(F)cc2)C1 (stereo not given)	3.5	0	2	-4%	-10%	14%	.
5	CC(=O)NCC(=O)NC(Cc1ccccc1)C(N)=O (stereo not given)	0.8	24	4	6%	-8%	-18%	-1.3%
6	CCNS(=O)(=O)c1ccc(NC(=O)c2cccnc2)cc1	-1.9	-11	3	25%	3%	15%	-4.4%
7	COCC1CCCN(Cc2nc(C(c3ccccc3)c3ccccc3)no2)C1 (stereo not given)	-1.9	-7	-18	-9%	-12%	0%[15.4 µM]	.
8	CC(=O)c1cn(-c2ccc([N+](=O)[O-])cc2)c(=O)n(C)c1=O	.	-6	.	.	7%	1%[15.4 µM]	1.1%
9	CC12CCCCC1N(O)C(=O)C(=O)N2O (stereo not given)	0.7	-6	12	-8%	11%	-22%	-21%
10	CC1CCCN(C(=O)CN2C(=O)c3ccccc3C2=O)C1 (stereo not given)	2.8	-12	6	18%	12%	-8%	-2.6%
11	Cn1cccc1Cc1nnc(SCC(=O)NC2CCCCC2)n1-c1ccc(F)cc1	12	-7	?	-19%	-7%	12%	-0.6%
12	CCC(=O)N1CCc2cc(S(=O)(=O)NCCCN3CCN(Cc4ccccc4)CC3)ccc21	5.2	-40	2	-16%	-3%	-43%[inhibitor]	0.7%
13	Cc1[nH]c2ccccc2c1/C=N/NS(=O)(=O)c1ccccc1	-2.1	-1	8	-7%	.	12%[15.4 µM]	.
14	Cc1cc(NC(=O)CCC(=O)N(c2ccc(F)cc2)C(C(=O)NC2CCCC2)c2ccncc2)no1 (stereo not given)	-0.8	-8	2	-3%	0%	-3%[15.4 µM]	0.0%
15	COc1ccc(NC(=O)CSc2nnc(-c3ccco3)n2N)cc1Cl	1.2	-5	2	10%	?	-50%[inhibitor]	0.3%

Ordered by molar mass (low to high): part of the list above
cpd	smiles	Menin MLL FP FL	D2 potentiator	TRPV1 PAM	Sfp PPTase inh	gsp antag	gsp agonist	ClpP mod
9	CC12CCCCC1N(O)C(=O)C(=O)N2O (stereo not given)	0.7	-6	12	-8%	11%	-22%	-21%
5	CC(=O)NCC(=O)NC(Cc1ccccc1)C(N)=O (stereo not given)	0.8	24	4	6%	-8%	-18%	-1.3%
10	CC1CCCN(C(=O)CN2C(=O)c3ccccc3C2=O)C1 (stereo not given)	2.8	-12	6	18%	12%	-8%	-2.6%
8	CC(=O)c1cn(-c2ccc([N+](=O)[O-])cc2)c(=O)n(C)c1=O	.	-6	.	.	7%	1%[15.4 µM]	1.1%
13	Cc1[nH]c2ccccc2c1/C=N/NS(=O)(=O)c1ccccc1	-2.1	-1	8	-7%	.	12%[15.4 µM]	.
2	COc1ccccc1C(=O)Nc1ccc2c(c1)nc(CCNC(C)=O)n2C	1.9	6	-7	14%	0%	21%	0.3%
1	Nc1nc(COC(=O)c2ccc3c(c2)OCCO3)nc(Nc2ccccc2)n1	.	-3	4	.	-25%	3%	3.6%
15	COc1ccc(NC(=O)CSc2nnc(-c3ccco3)n2N)cc1Cl	1.2	-5	2	10%	?	-50%[inhibitor]	0.3%
12	CCC(=O)N1CCc2cc(S(=O)(=O)NCCCN3CCN(Cc4ccccc4)CC3)ccc21	5.2	-40	2	-16%	-3%	-43%[inhibitor]	0.7%
3	O=S(=O)(c1cccc(S(=O)(=O)N2CCC(n3nnc4ccccc43)CC2)c1)N1CCCCC1	3.1	0	0	17%	6%	0%	1.2%
14	Cc1cc(NC(=O)CCC(=O)N(c2ccc(F)cc2)C(C(=O)NC2CCCC2)c2ccncc2)no1 (stereo not given)	-0.8	-8	2	-3%	0%	-3%[15.4 µM]	0.0%

(listing goes on)
cpd	smiles	Menin MLL FP FL	D2 potentiator	TRPV1 PAM	Sfp PPTase inh	gsp antag	gsp agonist	ClpP mod
16	Cc1cccc(N2CN(S(=O)(=O)c3cccc([N+](=O)[O-])c3)c3nc4ccccc4nc32)c1	.	-8	.	.	5%	-2%[15.4 µM]	0.3%
17	O=C(CCNS(=O)(=O)c1ccccc1Cl)OCc1nnc(-c2ccccc2Cl)o1	.	0	-3	.	-13%	27%	1.1%
18	O=c1c2ccccc2nc2n1CCCCN2	1.6	-17	7	19%	10%	-19%	4µM*
19	CC1CCC2C(=O)N(c3cccc(C(=O)Nc4ccccc4Cl)c3)C(=O)C2C1 (stereo not given)	-0.7	4	-10	3%	-12%	-7%	1.3%
20	Cc1cccc(OCC2=NS(=O)(=O)c3ccccc3N2)c1	10	-9	25	-16%	9%	?	-2.7%
21	COc1ccc(CC(=O)Nc2ccccc2NC(=O)Cc2ccc(OC)cc2)cc1	5.1	-5	7	8%	8%	-6%	0.1%
22	Cc1nn(CCC(=O)NCc2ccc(N(C)C)cc2)c(=O)c2nn(-c3ccccc3)c(C)c12	.	0	?	13%	?	24%	-1.8%&0.8%
23	COc1ccc(N2CCN(C(=S)NCc3ccc(C)cc3)CC2)cc1	-4.4	-28	-13	15%	10%	-22%	-3.9%
24	CC(NCc1ccc(F)cc1)C(=O)Nc1cc(S(=O)(=O)N2CCCCC2)ccc1Cl (stereo not given)	23	-12	-12	13%	-26%	-2%[15.4 µM]	0.5%
25	CCOC(=O)c1c(C)[nH]c(C(=O)NNC(=O)c2ccccc2)c1C	10	8	25	6%	-1%	11%	-2.8%
26	CC(C)c1nnc(NC(=O)CC(=O)Nc2ccccc2C(=O)O)s1	-1.9	-4	-2	0%	0%	-37%[inhibitor]	-23%
27	C=CCN1C(=O)c2ccc(C(=O)N3CCC(C(N)=O)CC3)cc2C1=O	.	-7	-5	-4%	-14%	-13%	-2.4%
28	CC(=O)N1CCN(C(=O)c2cccc(S(=O)(=O)NCc3ccccc3)c2)CC1	.	-14	?	.	5%	-36%	-2.8%
29	O=C(CN1C(=O)c2ccccc2C1=O)NCC(=O)OCC(=O)c1cccc([N+](=O)[O-])c1	-7.3	-15	5	2%	6%	-9%	.
30	Cc1cccc(N2CCN(C(=O)c3ccc(CS(=O)(=O)c4ccccc4C)o3)CC2C)c1 (stereo not given)	3.8	-7	12	-15%	1%	2%	-9.1%

Remaining list, next part:
cpd	smiles	Menin MLL FP FL	D2 potentiator	TRPV1 PAM	Sfp PPTase inh	gsp antag	gsp agonist	ClpP mod
31	O=C(O)c1cccc(S(=O)(=O)Nc2ccccc2N2CCOCC2)c1	5.1	-10	16	0%	-2%	-10%	-1.2%
32	Cn1cc(Br)c(C(=O)Nc2sc3c(c2C(N)=O)CCC3)n1	0.7	-6	-1	-8%	-21%	5%	-3.8%
33	COc1ccc(Cl)cc1C(=O)n1cnc2ccccc21	-0.2	-16	3	10%	-1%	19%	-5.9%
34	Cc1ccc(S(=O)(=O)[N-]c2nc3ccccc3nc2-n2cc[n+](Cc3ccccc3)c2)cc1	-0.3	-5	3	?	-12%	5%[15.4 µM]	-0.7%
35	O=C(Nc1ccc2c(c1)OCO2)N1CCN(c2ccccc2Cl)CC1	-1.5	-14	3	15%	-8%	-24%	-3.5%
36	COc1ccc(OCC(=O)NCCCCCCNC(=O)COc2ccc(OC)cc2)cc1	.	-13	4	1%	4%	-30%[inhibitor]	-2.2%
37	COc1ccccc1C(C)NC(=O)Cc1ccc(S(=O)(=O)N2CCOCC2)s1 (stereo not given)	.	-7	5	.	4%	1%	-1.1%
38	CC1(C)CC(=O)C(C=Nc2ccccc2Sc2ccccc2)=C(O)C1	-1.1	-7	-9	-16%	-23%	-57%[inhibitor]	-11%
39	O=C1CC(SCCc2nc3ccccc3[nH]2)C(=O)N1c1ccc(F)c(Cl)c1 (stereo not given)	.	-20	.	.	-7%	3%	-9.9%
40	CCCOCC1CC2(SC(=Nc3ccc(C)cc3)NC2=O)C(=O)O1 (stereo not given)	-2.7	1	-1	25%	5%	-16%	2.1%
41	O=C(COC(=O)c1ccccc1)c1ccc(S(=O)(=O)N2CCCCC2)cc1	.	1	-8	.	7%	29%	-1.6%
42	COc1cc(/C=C2/C(=N)N3C=CSC3=NC2=O)ccc1OCCOc1ccc(NC(C)=O)cc1	-0.1	-8	5	15%	-11%	12%[15.4 µM]	.
43	O=C(CCNC(=O)c1ccc(Br)cc1)NCC1CCCO1 (stereo not given)	.	-2	-2	.	15%	3%	-0.6%
44	CSc1nc(C)[nH]c(=O)c1C#N	1.7	-9	-4	-6%	8%	11%	-2.1%
45	COc1ccc(-n2ncc(C(C)NS(=O)(=O)c3cccs3)c2C)cc1 (stereo not given)	2.3	13	19	10%	-3%	7%	-3.9%

Next part.
cpd	smiles	Menin MLL FP FL	D2 potentiator	TRPV1 PAM	Sfp PPTase inh	gsp antag	gsp agonist	ClpP mod
46	CC(C)OC(=O)CC(NC(=O)OC(C)(C)C)c1ccccc1 (stereo not given)	-1.3&-0.2	-3	-30	5%&15%	7%	5%	-0.2%
47	N#CC1=C(SCc2ccccc2)NC(=O)CC1c1ccc(O)cc1 (stereo not given)	4.3	3	26	-1%	-4%	-3%	0.0%
48	Cc1ccc(NC(=O)C2CCCC2)cc1S(=O)(=O)N1CCOCC1	.	-2	-38	.	12%	-25%	-3.6%
49	CCOC(=O)CSc1nnc(CSc2nc(N)c3c(C)c(C)sc3n2)n1-c1ccccc1	5.6	1	-12	3%	-14%	2%	1.1%
